TsaE inh – qHTS Assay for Inhibitors of YjeE; actives 0.05% (n = 71,000); Potency, µM; purified YjeE, fluorescence polarisation of a bound ADP probe; AID 605, 2007; tRNA threonylcarbamoyladenosine biosynthesis protein TsaE (Escherichia coli (strain …; active = well fitted falling curve; inconclusive = weaker or top-dose-only fall, or a rising curve; inactive = flat or poorly fitted curve;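 note: top concentration of the series not given in the record; excess ADP was the control for the full effect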
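Fluorescence polarization of a BODIPY Texas Red–ADP probe (2 uM) bound to purified YjeE (10 uM) was read after 15 min room-temperature incubation with compounds. Loss of polarization marks inhibitors; ADP serves as titrated control.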
Bst PK mod – Pyruvate Kinase; partly purified Bacillus stearothermophilus pyruvate kinase, luminescence ATP production; ribose 5-phosphate activator present at AC10; Potency, µM; actives 1.2% (n = 51,000); in the data active means potency below about 11 µM; inconclusive means mostly about 12 µM to 25 µM; inactive means weaker than that;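 the screen sought inhibitors and activators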;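 note: potency is the fitted concentration of half-maximal effect; scaled between full activation by ribose 5 phosphate and full inhibition by luteolin; about four in five hits inhibit and the cells do not say which; series up to 57 µM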
Active calls of the source: *; i = inactive; ? = inconclusive; . = not tested or not shown. The list is partial. The share of hits here may be higher or lower than overall.

TsaE inh,Bst PK mod,structure
i,.,COc1ccc(Cn2nnnc2C(c2cc3ccc(OC)cc3[nH]c2=O)N2CCCCCC2)cc1 (configuration not stated)
i,.,COCC(=O)Nc1ccc(-c2cn3cccnc3n2)cc1
i,>57,CCC(=O)N1CCc2cc(S(=O)(=O)NCCN3CCC(C)CC3)ccc21
i,>57,CCCn1c(SCC(=O)NCc2cccs2)nc2c1c(=O)n(C)c(=O)n2C
i,.,COC(=O)CSC1=NS(=O)(=O)c2ccccc21
.,>25.6,CC(C)Sc1nnc2n(CCc3ccccc3)c(=O)c3c4c(sc3n12)COC(C)(C)C4
i,>57,Cc1nnc2sc(-c3ccncc3)nn12
i,>57,Cc1ccc2c(c1)N(CCCC(=O)NCCC1=CCCCC1)C(=O)CO2
i,i,O=S(=O)(NCC1CCCO1)c1ccc(Cl)c(C(F)(F)F)c1 (configuration not stated)
i,>57,C=CCn1c(N)c(C(=O)NC2CCCCC2)sc1=S
i,>57,O=C(NCC1CCCCC1)c1ccco1
i,>57,Cc1sc2nc(C3CC3)nc(SCC(=O)NCc3ccco3)c2c1C
i,>57,CCS(=O)(=O)NC(C)C(c1cccs1)N1CCN(C)CC1 (configuration not stated)
i,>57,Cc1[nH]n(C(N)=S)c(=O)c1C(c1ccccc1)C(C#N)C#N (configuration not stated)
i,3.31*,COC(=O)c1ccc(-c2nc3ccc(C)cc3o2)cc1
i,>57,CCOC(=O)C1CCCN(C(=O)c2cnn3c(C(F)(F)F)cc(-c4ccccc4)nc23)C1 (configuration not stated)
i,>57,O=S(=O)(c1cnc[nH]1)N1CCCCCC1
i,>57,CCn1c(CSc2nnc(C)n2-c2ccccc2)nc2cc(S(=O)(=O)N(C)C)ccc21
i,>57,O=C(CCC(=O)c1cccs1)OCc1nnc(-c2ccccc2)o1
i,.,COC(=O)[C@H]1C[C@@H]1[C@H](NS(=O)(=O)c1ccc(-c2ccccc2)cc1)c1ccccc1
i,.,COc1cc(-c2nnn(CC#N)n2)ccc1OCc1ccccc1
i,>57,CCn1c(COc2cccc(C)c2)nnc1SCC(=O)Nc1cccc(C(=O)O)c1
i,>57,O=C(Oc1ccccc1)c1ccc2nccnc2c1
i,i,COc1ccc(NC(=O)c2oc3ccccc3c2NC(=O)C(C)(C)C)cc1
i,>57,Cc1ccc(N(C(C)C(=O)Nc2ccc(S(=O)(=O)N3CCOCC3)cc2)S(C)(=O)=O)cc1C (configuration not stated)
i,>11.4,COCc1cc(=O)[nH]c(/N=C(\N)Nc2ccc(C)cc2)n1
i,>57,CC(C(=O)Nc1ccc(C(=O)O)cc1)N1C(=O)c2ccccc2C1=O (configuration not stated)
i,.,CCCn1c(-c2ccc(F)cc2)nc2c(N3CCC(N(C)C)C3)nc(C)nc21 (configuration not stated)
.,>11.4,CC(=O)Nc1ccc(NCC(O)COc2ccccc2)cc1 (configuration not stated)
i,>57,COc1cccc(C(=O)Nc2c3c(nn2-c2cccc(C)c2C)CS(=O)(=O)C3)c1OC
i,>57,COC(=O)CN1C(=O)C(O)(CC(=O)c2ccc(C)o2)c2ccccc21 (configuration not stated)
i,>57,COc1ccc(OC)c(CN2CCCC(C(=O)N3CCCCC3)C2)c1 (configuration not stated)
i,>57,CCCCCc1nc2c(=O)[nH]c3ccccc3c2o1
i,>57,O=C(NCc1cccs1)C1CCCN(c2ncccn2)C1 (configuration not stated)
i,>57,CCN(CC)S(=O)(=O)c1ccc2nc(NC(=O)c3cccs3)sc2c1
i,>57,C#CCN1C(=O)C2C(C(=O)NC)C3C=CC2(O3)C1C(=O)NCc1ccc(OC)cc1 (configuration not stated)
i,>57,COc1ccc(N2CCCn3c2nc2c3c(=O)n(CCCc3ccccc3)c(=O)n2C)cc1
i,>57,CCCS(=O)(=O)N1CCC(C(=O)NCCN2CCCC2)CC1
i,>11.4,Cc1cc(C(=O)CSc2nnc(-c3cccnc3)n2-c2ccccc2F)c(C)n1C
i,.,COc1ccc(-n2c(=O)c(CCc3ccccc3)nc3cnc(N4CCNCC4)nc32)cc1
i,.,CC1=C(C(N)=O)C(c2ccncc2)n2nc(-c3ccccc3Cl)nc2N1 (configuration not stated)
i,>57,CCOc1ccccc1N(CC(=O)NCC1CCCO1)C(=O)CCC(=O)Nc1ccccn1 (configuration not stated)
i,>57,CCN(CC)c1ccc(NC(=O)c2ccc(Br)o2)c(C)c1
i,>57,COc1ccc(-c2noc(CSc3nnc(Cc4ccccc4)n3-c3cccc(C)c3)n2)cc1OC
i,>11.4,Nc1ccc(S(=O)(=O)NC(=O)c2ccccc2)cc1

Compound profiles (already shown).
Nc1ccc(S(=O)(=O)NC(=O)c2ccccc2)cc1 as listed: TsaE inh = i; Bst PK mod = >11.4
CCCS(=O)(=O)N1CCC(C(=O)NCCN2CCCC2)CC1 as listed: TsaE inh = i; Bst PK mod = >57

The results go on:
TsaE inh,Bst PK mod,structure
i,>57,Cc1ccccc1Nc1nc(N)nc(CN2C(=O)NC3(CCCCC3C)C2=O)n1 (configuration not stated)
i,>57,C=CCn1c(SCC(=O)NCc2ccco2)nnc1-c1ccc2ccccc2n1
i,>57,COc1ccc(Cn2nnnc2C(c2ccncc2)N2CCOCC2)cc1 (configuration not stated)
i,.,COCCn1c(=O)c(CCc2ccccc2)nc2cnc(OCc3ccccc3)nc21
i,>57,O=C1[C@@H]2C(Cc3ccc(O)cc3)NC3(C(=O)Nc4ccc(F)cc43)[C@@H]2C(=O)N1c1ccc(F)cc1 (some centres not stated)
i,.,COc1ccc(NC(=O)C2CCN(S(=O)(=O)c3cccc4cccnc34)CC2)cc1
i,>57,COC(=O)[C@H](CCSC)NC(=O)Nc1cc(C)ccc1C
i,.,COc1cc(NCCC(=O)O)c2ncccc2c1
i,>57,O=C(c1cccc(F)c1)N1CCN(c2cccc(C(F)(F)F)c2)CC1
i,>57,Cc1cc(NS(=O)(=O)c2ccc(NC(=O)CN3C(=O)c4ccccc4C3=O)cc2)nc(C)n1
i,>57,CCOC(=O)c1ccc2[nH]c(C)c(CN3CCN(C)CC3)c(=O)c2c1
i,>57,CCC(C)(C)NC(=O)CN(C(=O)CCC(=O)Nc1cc(C)ccn1)c1ccc2c(c1)OCO2
i,.,Cn1c(=O)c2c(SCc3ccccn3)nc(-c3ccccc3)nc2n(C)c1=O
i,.,CCCn1c(=O)c(C(=O)NCc2ccccn2)c(O)c2ccccc21
i,.,CCOCCCNC(=O)CN1CCN(Cc2ccccc2C)C1=O
i,.,Cc1ccccc1-c1nccc(-n2ccnc2)n1
i,>57,CCCCn1c(=O)cc(O)c2ccccc21
i,>57,CC(C)(C)c1ccccc1OCC(=O)Nc1ncn[nH]1
i,>57,Cc1ccc(C(=O)CSc2nc3cc(S(=O)(=O)N4CCOCC4)ccc3o2)cc1
i,>57,CSC1=NC(NCCCO)c2c(sc3c2CC(C)(C)OC3)N1 (configuration not stated)
i,.,COCC(C)NC(=O)c1cc(-c2ccc(OC)c(OC)c2)on1 (configuration not stated)
i,>57,CCc1ccc(-c2ccc(C(=O)O)cc2)nc1
i,.,CC(=O)N(Cc1ccc2c(c1)OCO2)C1CC(=O)N(CCc2ccccc2)C1=O (configuration not stated)
i,.,FC(F)(F)c1ccccc1-c1cncnc1NCCc1cnc[nH]1
i,>57,Cc1ccc(C)c(NC(=O)C2CCCN2C(=O)OC(C)(C)C)c1 (configuration not stated)
i,>57,CCN1CCCC1CNC(=O)c1cc(NC(C)=O)c(N(C)C)cc1OC (configuration not stated)
i,.,CNc1ccccc1
i,.,CC(C)[C@@H](CC(=O)N[C@@H]1CCCC[C@H]1C(=O)N[C@H](CC(=O)N[C@@H](CCC(=O)O)CC(=O)O)Cc1c[nH]c2ccccc12)NC(=O)C[C@H](CO)NC(=O)[C@@H]1CCCC[C@H]1N
i,>57,Cc1occc1-c1nnc(SCC(=O)NCc2ccc3c(c2)OCO3)n1CC(C)C
i,>57,O=C(Cn1nc(-c2ccccc2)nc1-c1ccccc1)N1CCOCC1
i,>57,CN(C)S(=O)(=O)N(CCN1CCOCC1)Cc1ccccc1F
i,.,COc1cc2c(cc1C(F)(F)F)N(C(=O)Nc1cc(F)cc(-c3cccnc3)c1)CC2
i,.,O=C(NC1CCN(Cc2ccccc2)CC1)c1ccccc1F
i,>57,O=C(NCCCN1CCCC1)C1CCN(C(=O)c2cc3sccc3n2Cc2ccc(F)cc2)CC1
i,>57,CN(C)CCCNS(=O)(=O)c1cc(Cl)ccc1Cl
i,.,Cc1oc(-c2ccc(Cl)cc2)nc1CN1CCC(C(=O)NCCCN2CCCC2=O)CC1
i,>57,COc1ccc(C2C(C(C)=O)=C(O)C(=O)N2CCO)c(OC)c1 (configuration not stated)
i,>57,CC(C)C1CC(O)(C2(O)CCCCC2)ON1 (configuration not stated)
i,>57,COc1cc(CNC2CCCCCC2)cc(OC)c1OC
i,>57,CSc1nc(NCC(C)C)nc(N2CCOCC2)n1
i,>57,C/C(N)=C(/C#N)C(=O)COc1ncnc2ccc(Br)cc12
i,>57,COc1ccccc1N1C(=O)C2C3C=CC(C3)C2C1=O (configuration not stated)
i,>57,COc1ccc2[nH]c(=O)c(C(c3nnnn3CC3CCCO3)N3CCc4ccccc4C3)cc2c1 (configuration not stated)
i,.,COc1ccc(Nc2ncc3nc(-c4cccs4)c(=O)n(Cc4cccc(OC)c4)c3n2)cc1
i,>57,CC(C)C(NC(=O)C1CCCCC1)C(=O)NCc1ccccn1 (configuration not stated)
i,.,N/N=C1/c2ccccc2N[C@H]1OC(=O)Nc1cccc(Cl)c1
i,>57,Cc1cccc2cc(C(c3nnnn3CC3CCCO3)N3CCCC4(CCCCC4)C3)c(=O)[nH]c12 (configuration not stated)
i,.,COc1ccccc1-c1cncnc1NCCNC(C)=O
i,.,Cc1nc2sc3c(c2c2nnc(SCC(=O)NCc4ccco4)n12)CCCC3
i,>57,CCCCC(=O)Nc1nnc(SCC(=O)N2CCN(c3ccccc3OC)CC2)s1
i,.,CCC(C)(C)C(=O)O
i,>57,O=C(Nc1cc(Cl)ccc1O)c1cc2n(n1)C(C(F)(F)F)CC(c1ccc3c(c1)OCO3)N2 (configuration not stated)
i,.,Cc1ccc(C(=O)c2cc3c(cc2N)OCCO3)cc1
i,>57,Cc1nn(-c2ccccc2)c(C)c1C(=O)OCC(=O)c1c(N)n(CC(C)C)c(=O)n(C)c1=O
i,>57,Cc1ccc(-n2ncc3c(=O)n(CC(=O)Nc4cccc(Cl)c4)cnc32)cc1C
i,>57,COc1cccc(CSc2nnc(-c3ccc(F)cc3)o2)c1
i,.,CN(C)c1ccc(-c2ccc3ncnc(NCc4ccccc4)c3c2)cc1
.,i,COc1ccc2[nH]c(C)c(C(=O)CN3CCN(C(=O)c4ccco4)CC3)c2c1
i,.,NC(=O)C1CCN(C(=O)c2cc3ccccn3n2)CC1
i,>57,CCCC(=O)Nc1ccc(Cl)c(NC(=O)c2ccco2)c1

More records
TsaE inh,Bst PK mod,structure
i,.,COc1cccc(CN2CCN(c3ncccn3)CC2)c1
i,.,COc1cc2c(cc1OC)CN(C(=O)CSc1nc3[nH]ncc3c(=O)n1-c1ccccc1)CC2
i,.,CNC1=C(Cl)C(=O)c2ccncc2C1=O
i,>57,Cc1cc(C(=O)Nc2c(C)n(C)n(-c3ccccc3)c2=O)c(C)o1
i,>57,CN(c1ccc(C(=O)NCc2cccnc2)cc1)S(C)(=O)=O
i,.,COCCn1c(C)cc(C(=O)CSc2nncn2-c2ccccc2)c1C
i,>57,CCN(CC)S(=O)(=O)c1ccc(NC(=O)Cn2cnc3ccccc3c2=O)cc1
?,.,O=C(CSc1nc2ccccc2s1)c1sc2sc3ccccc3[n+]2c1O
i,.,C(=NCCCN1CCOCC1)c1ccc2c(c1)OCO2
i,.,O=S(=O)(CCc1nnc(-c2ccccc2)o1)c1ccc2ccccc2c1
.,>25.6,Cc1ccc(CNC(=O)c2cc3c(=O)n4ccccc4nc3n(Cc3ccco3)c2=N)cc1
i,.,CCOC(=O)C1CCCN(C(=O)c2ccccc2Oc2ccccc2)C1 (configuration not stated)
.,i,Cn1c(=O)c2c3c(sc2n2c(SCc4ccccc4)nnc12)CCCC3
i,>57,CN1CCN(C2=C(Cl)C(=O)N(C3CCCCC3)C2=O)CC1
i,>57,CC(C)(C)n1nc2c(c1NC(=O)c1ccc(S(=O)(=O)N3CCCC3)cc1)CSC2

Among those listed so far, these contain fluorine.
TsaE inh,Bst PK mod,structure
i,i,O=S(=O)(NCC1CCCO1)c1ccc(Cl)c(C(F)(F)F)c1 (configuration not stated)
i,>57,CCOC(=O)C1CCCN(C(=O)c2cnn3c(C(F)(F)F)cc(-c4ccccc4)nc23)C1 (configuration not stated)
i,.,CCCn1c(-c2ccc(F)cc2)nc2c(N3CCC(N(C)C)C3)nc(C)nc21 (configuration not stated)
i,>11.4,Cc1cc(C(=O)CSc2nnc(-c3cccnc3)n2-c2ccccc2F)c(C)n1C
i,>57,O=C1[C@@H]2C(Cc3ccc(O)cc3)NC3(C(=O)Nc4ccc(F)cc43)[C@@H]2C(=O)N1c1ccc(F)cc1 (some centres not stated)
i,>57,O=C(c1cccc(F)c1)N1CCN(c2cccc(C(F)(F)F)c2)CC1
i,.,FC(F)(F)c1ccccc1-c1cncnc1NCCc1cnc[nH]1
i,>57,CN(C)S(=O)(=O)N(CCN1CCOCC1)Cc1ccccc1F
i,.,COc1cc2c(cc1C(F)(F)F)N(C(=O)Nc1cc(F)cc(-c3cccnc3)c1)CC2
i,.,O=C(NC1CCN(Cc2ccccc2)CC1)c1ccccc1F
i,>57,O=C(NCCCN1CCCC1)C1CCN(C(=O)c2cc3sccc3n2Cc2ccc(F)cc2)CC1
i,>57,O=C(Nc1cc(Cl)ccc1O)c1cc2n(n1)C(C(F)(F)F)CC(c1ccc3c(c1)OCO3)N2 (configuration not stated)
i,>57,COc1cccc(CSc2nnc(-c3ccc(F)cc3)o2)c1
